Bioassay records: PubChem, National Center for Advancing Translational Sciences (NCATS)
miR-21 reporter: miR-21 reporter, rising signal; Potency, µM (titrated, usually from 38.3 µM), inactives show at the top dose reporter change, positive = more light; 340,000 tested, under 10 active; HeLa miR-21 FLuc reporter, luciferase, 48 h; active = well fitted rising curve with a large enough effect; inconclusive = small, poorly fitted or top-dose-only effect; inactive = no such curve, though single readings can be large or run the other way;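 further: % of control where 0% means no effect; miR-21 action dims this reporter so a rising signal means less miR-21 action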
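Using DMEM plus 10% FBS, HeLa miR-21-FLuc cells are incubated with test compounds (final up to about 40uM) for 48 hours; firefly luciferase signal is then imaged following reagent-mediated lysis.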
Rango release inh: inhibitors of RanGTP-induced Rango-importin beta complex dissociation. Potency, µM (titrated, usually from 46.1 µM), for inactives: top-dose activity change, negative = inhibition. AID 540253. actives 0.071% (n = 340,000). O95149+P62826. Biochemical FRET Rango-importin beta, RanGTP-induced dissociation; active means falling FRET ratio curve, often poorly fitted, with flat reads before Ran was added; inconclusive means other falling curves, or compound fluorescence or quenching; inactive means flat or rising ratio curve;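 further: potency means the concentration at half of the fitted maximal effect; % of control where 0% means no effect; nearly all actives have a fitted effect of over 45% in size; -100% = wells without RanGTP and RCC1; the record marks most hits as doubtful in a second field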
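Compounds sat 5 min at room temperature with 0.1 uM Rango biosensor plus 0.25 uM importin beta, then FRET pre-read. RanGTP-RCC1 (0.6 uM Ran, 2mM GTP, 0.2 uM RCC1) added for 45 min, and the CFP/YFP post-read measured blocked complex dissociation.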
Rango-impB inh: prevents formation of the Rango-importin beta complex | Rango CFP/YFP FRET sensor + importin beta, 45 min | AID 540263 | actives 0.031% (n = 340,000) | Potency, µM (series often up to 92.2 µM), for the others: top-dose inhibition of complex formation; active = rising FRET ratio curve, often small or poorly fitted; inconclusive = mostly compound fluorescence or quenching in the first reads; inactive = flat curves in all reads;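 further: potency means the concentration at half of the fitted maximal effect; 0% = DMSO wells and 100% = buffer wells lacking importin beta; nearly all actives have a fitted effect of over 15% in size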
Target sequence (Q14974 whole entry, looked up): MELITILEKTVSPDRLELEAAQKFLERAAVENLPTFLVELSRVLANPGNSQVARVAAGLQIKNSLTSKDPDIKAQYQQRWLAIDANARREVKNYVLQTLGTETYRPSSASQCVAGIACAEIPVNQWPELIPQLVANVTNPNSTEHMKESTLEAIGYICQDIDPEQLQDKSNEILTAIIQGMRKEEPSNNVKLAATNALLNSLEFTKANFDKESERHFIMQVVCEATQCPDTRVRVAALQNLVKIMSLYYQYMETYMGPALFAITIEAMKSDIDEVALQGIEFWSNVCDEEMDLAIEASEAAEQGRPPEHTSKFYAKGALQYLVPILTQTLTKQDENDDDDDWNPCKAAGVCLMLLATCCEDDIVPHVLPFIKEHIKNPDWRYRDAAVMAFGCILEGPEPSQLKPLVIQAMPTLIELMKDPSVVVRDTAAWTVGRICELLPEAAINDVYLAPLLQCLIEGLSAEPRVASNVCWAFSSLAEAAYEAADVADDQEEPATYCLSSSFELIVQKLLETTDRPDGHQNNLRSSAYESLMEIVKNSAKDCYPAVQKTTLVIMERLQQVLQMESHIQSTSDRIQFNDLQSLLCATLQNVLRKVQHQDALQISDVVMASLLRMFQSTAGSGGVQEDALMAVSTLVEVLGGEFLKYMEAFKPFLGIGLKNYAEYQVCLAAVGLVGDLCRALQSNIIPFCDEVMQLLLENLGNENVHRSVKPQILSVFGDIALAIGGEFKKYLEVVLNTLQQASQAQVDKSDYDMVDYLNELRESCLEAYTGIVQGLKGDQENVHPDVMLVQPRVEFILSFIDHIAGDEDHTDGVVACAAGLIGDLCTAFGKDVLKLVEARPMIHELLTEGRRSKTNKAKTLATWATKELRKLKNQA
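Inhibition scored from the CFP 486 nm/YFP 530 nm FRET ratio 45 min after adding 0.125 microM importin beta to 50 nM Rango biosensor preincubated 5 min with compound (room temperature, PBS with DTT, Tween-20, BSA). No-importin wells as positive control.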
GLA inh pH 4.5: inhibitors of human alpha-galactosidase A at pH 4.5. P06280. activity change, negative = inhibition, % at 105 µM. purified enzyme, 4-MU-alpha-Gal fluorescence, pH 4.5. 230,000 tested, under 10 active; inconclusive = small, poorly fitted or top-dose-only inhibition, or a rising curve; inactive = flat fitted curve, though single readings scatter; no compound was filed as active;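 further: 0% = full activity with enzyme and -100% = basal without enzyme; dose as in the result columns while the protocol names 77 µM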
Starred values were filed as active, the others as inactive; ? = inconclusive; · = no result given; & = joins results of further samples.

SMILES	miR-21 reporter	Rango release inh	Rango-impB inh	GLA inh pH 4.5
NC1=C(c2ccccc2)C(=O)NC1=O	1%	-8%	1.7%	·
COc1cccc(-c2nc(CS(=O)(=O)CC(=O)NC3CCCC3)c(C)o2)c1	-1%	-5%	?	·
CC(C)CC(OC(=O)c1nsc(Cl)c1Cl)C(=O)NCC1CCCO1 (stereo not given)	-4%	-7%	-2.4%	·
O=C(Cc1c[nH]c2ccccc12)NC1(C(=O)NC2CCCC2)CCCCC1	0%	17%	-0.3%	-3
COC(=O)N(NC(=O)C(O)(c1ccccc1)c1ccccc1)c1ccc(C)cc1	0%	-2%	0.4%	7
O=C(NCCN1CCOCC1)c1cccc(S(=O)(=O)NCc2ccccc2)c1	·	-1%	-2.4%	·
CN(/C=C/C(=O)C(F)(F)F)Cc1ccccc1	-2%	-6%	?	0
COc1ccc(N=Cc2c(O)ccc3ccccc23)cc1	10%	?	?	10
CC(=O)Nc1cnc2ccccc2n1	0%	-2%	1.5%	-3
CC1=C(C(=O)NCc2ccccc2)C(c2cccnc2)n2ncnc2N1 (stereo not given)	-4%	12%	0.0%	3
Cc1[nH]oc(=O)c1N=Nc1c(Cl)cccc1Cl	0%	3%	1.7%	-5
Cc1cccc(C(=O)N/N=C/c2ccoc2)c1	-17%	26%	-0.4%	·
CCOC(=O)c1c(N)nn(C(=O)C(C)C)c1-c1ccc(OC)cc1	-4%	-2%	-4.7%	1
CCOc1cc(CNc2ccc3c(c2)CCC3)ccc1OC	-35%	·	·	7
COc1ccccc1OCCSc1nnc(C)n1-c1ccccc1	-8%	7%	4.9%	-3
O=C(CCC(=O)N(CC(=O)NC1CCCC1)Cc1ccccc1Cl)Nc1nccs1	-1%	5%	2.0%	·
CCOC(=O)N1CCN(C(=O)c2cnn3c(C)c(Cc4ccc(C)cc4)c(C)nc23)CC1	-7%	4%	-3.5%	6
CC(=O)c1c(N2CCOCC2)nc(=S)n(Cc2ccccc2)c1C	-5%	-6%	2.4%	3
Cc1cc(C)n(C(=O)C(C)n2nc([N+](=O)[O-])c(Br)c2C)n1 (stereo not given)	0%	23%	2.5%	5
CCN1C(=O)C(CC(=O)Nc2ccc(F)cc2)N(CCc2ccc(OC)cc2)C1=S (stereo not given)	16%	-7%	-0.6%	-5
O=C(Nc1c[nH]c(=O)[nH]c1=O)c1cccc(F)c1	0%	4%	-0.1%	·
N#Cc1ccc(S(=O)(=O)N2CCN(C(=O)c3cn(-c4ccccc4)nc3-c3cccnc3)CC2)cc1	·	1%	0.1%	·
O=C(Nc1sc2c(c1C(=O)O)CCC2)C(=O)N1CCOCC1	-8%	-22%	7.9%	·
CCCCc1ccc(NC(=S)N2CCN(c3ccccn3)CC2)cc1	5%	9%	3.0%	·
Clc1ccc(-n2cccc2/C=N/n2cnnc2)cc1	-3%	2%	-3.9%	-2
CCN(C[C@H]1N[C@@](CC)(C(=O)OC)[C@H]2C(=O)N(Cc3ccccc3)C(=O)[C@@H]12)C(=O)Nc1ccc(C)cc1	·	7%	-0.7%	·
O=C(N=C1SC2CS(=O)(=O)CC2N1c1ccccc1)c1cccc([N+](=O)[O-])c1 (stereo not given)	·	-2%	3.2%	·
COc1cc2c(cc1OC)CN(C(=O)C1CCCN1S(=O)(=O)c1ccc(C)cc1)CC2 (stereo not given)	-2%	-12%	-4.7%	·
O=C1CC(NCc2ccc(F)cc2)C(=O)N1c1ccccc1 (stereo not given)	-1%	9%	1.4%	6
CSc1ccc(CNc2ccc(C)cc2)cc1	-42%	-1%	8.5%	-4

Some of the entries so far, with two lines to a compound:
Order of values: miR-21 reporter, Rango release inh, Rango-impB inh, GLA inh pH 4.5
O=C(CCC(=O)N(CC(=O)NC1CCCC1)Cc1ccccc1Cl)Nc1nccs1
    -1%, 5%, 2.0%, ·
CCOC(=O)N1CCN(C(=O)c2cnn3c(C)c(Cc4ccc(C)cc4)c(C)nc23)CC1
    -7%, 4%, -3.5%, 6
CC(=O)c1c(N2CCOCC2)nc(=S)n(Cc2ccccc2)c1C
    -5%, -6%, 2.4%, 3
Cc1cc(C)n(C(=O)C(C)n2nc([N+](=O)[O-])c(Br)c2C)n1 (stereo not given)
    0%, 23%, 2.5%, 5
CCN1C(=O)C(CC(=O)Nc2ccc(F)cc2)N(CCc2ccc(OC)cc2)C1=S (stereo not given)
    16%, -7%, -0.6%, -5
O=C(Nc1c[nH]c(=O)[nH]c1=O)c1cccc(F)c1
    0%, 4%, -0.1%, ·
N#Cc1ccc(S(=O)(=O)N2CCN(C(=O)c3cn(-c4ccccc4)nc3-c3cccnc3)CC2)cc1
    ·, 1%, 0.1%, ·
O=C(Nc1sc2c(c1C(=O)O)CCC2)C(=O)N1CCOCC1
    -8%, -22%, 7.9%, ·
CCCCc1ccc(NC(=S)N2CCN(c3ccccn3)CC2)cc1
    5%, 9%, 3.0%, ·
Clc1ccc(-n2cccc2/C=N/n2cnnc2)cc1
    -3%, 2%, -3.9%, -2
CCN(C[C@H]1N[C@@](CC)(C(=O)OC)[C@H]2C(=O)N(Cc3ccccc3)C(=O)[C@@H]12)C(=O)Nc1ccc(C)cc1
    ·, 7%, -0.7%, ·
O=C(N=C1SC2CS(=O)(=O)CC2N1c1ccccc1)c1cccc([N+](=O)[O-])c1 (stereo not given)
    ·, -2%, 3.2%, ·
COc1cc2c(cc1OC)CN(C(=O)C1CCCN1S(=O)(=O)c1ccc(C)cc1)CC2 (stereo not given)
    -2%, -12%, -4.7%, ·
O=C1CC(NCc2ccc(F)cc2)C(=O)N1c1ccccc1 (stereo not given)
    -1%, 9%, 1.4%, 6
CSc1ccc(CNc2ccc(C)cc2)cc1
    -42%, -1%, 8.5%, -4

Going on with the list:
SMILES	miR-21 reporter	Rango release inh	Rango-impB inh	GLA inh pH 4.5
CC1CCCC(C)N1/N=C/c1ccc(O)c(O)c1 (stereo not given)	-3%	-8%	-0.4%	·
COC(=O)CSc1nc(C)cc(C)n1	-1%	0%	0.3%	4
Cc1ccc2c(CN3CC(C)CC(C)C3)cc(=O)oc2c1 (stereo not given)	-7%	12%	-3.2%	·
COc1ccc(CCN2CCC(CN3C(=S)NC[C@@H]3CC(C)C)CC2)cc1OC	·	-1%	-0.3%	·
CC1CC1C(=O)OCC(=O)Nc1cccc(F)c1 (stereo not given)	·	9%	3.8%	·
CC(C)CC(OC(=O)c1cccs1)C(=O)NCc1cccs1 (stereo not given)	-6%	0%	-2.8%	-10
C[C@H]1CN[C@@H](CCO)/C1=C\c1ccccc1	·	-8%	-1.3%	·
COc1ccc(C(=O)Nc2ccc(-c3ccc(C)o3)cc2)cc1S(=O)(=O)N1CCOCC1	26%	0%	-1.8%	2
COc1ccc(N2CCN(c3nc4c(c(=O)n(C)c(=O)n4C)n3Cc3ccccc3)CC2)cc1	10%	5%	5.7%	-3
CCC1NC(=S)NC(C)=C1C(=O)c1ccccc1 (stereo not given)	16%	-5%	-0.7%	5
COc1cc(C2c3cc4c(cc3OC(N3CCCCC3)C2C)OCO4)cc(OC)c1O (stereo not given)	·	14%	1.4%	·
CN(CC(=O)Nc1ccc(F)c(F)c1F)C(=O)Cc1ccc(S(=O)(=O)N2CCOCC2)s1	·	17%	1.2%	·
CC1CCCN(C(=O)CCS(=O)(=O)Cc2ccccc2)C1 (stereo not given)	-13%	-11%	0.5%	-1
COc1ccc(S(=O)(=O)N2CCC(C(=O)NCCC(=O)NCc3ccncc3)CC2)cc1	0%	0%	-2.6%	·
CCCC(=O)Nc1c2c(nn1-c1ccc(C)cc1C)CSC2	-5%	-12%	0.8%	6
CC(=O)C1=C(C)Nc2ncnn2C1c1ccccc1 (stereo not given)	-4%	14%	-0.5%	·
N#CC1=C(N)N(c2ccccc2)C(c2ccco2)C1(C#N)C#N (stereo not given)	-30%	1%	?	2
COc1ccc(Nc2nc(N)c([N+](=O)[O-])c(N3CCCC3)n2)cc1	12%	-10%	-0.1%	·
CCOC(=O)CSc1nc2cc3c(cc2cc1C)OCO3	0%	-5%	-0.8%	-17
CC1(C)C(=O)Nc2ccccc2N1C(=O)COC(=O)C12CC3CC(CC(O)(C3)C1)C2	0%	5%	-4.4%	0
O=C1c2ccccc2C(O)(c2ccccc2)N1c1ccncc1 (stereo not given)	0%	-1%	1.0%	5
CCC1CCCN1Cn1cnc2c([nH]c3ccc(C)cc32)c1=O (stereo not given)	-4%	-4%	0.0%	-1
CCN(CC)S(=O)(=O)c1ccc(C(=O)OCC(=O)N2CCN(C(=O)c3ccco3)CC2)cc1	-3%	11%	-0.4%	1
COc1cccc(NC(=O)C2CSC3(C)CCC(=O)N23)c1 (stereo not given)	·	15%	6.3%	·
Cc1ccc(N2C(=S)NC3c4cc(Cl)ccc4OC2(C)C3C(=O)N(C)C)cc1 (stereo not given)	9%	8%	7.5%	-3
CC1=N/C(=C\c2ccccc2Cl)C(=O)O1	·	12%	-0.2%	·
Cc1cc(C)n2nc(C(=O)N/N=C/c3cccs3)nc2n1	-1%	1%	-0.8%	10
c1ccc(Cn2cnc3ccccc32)cc1	-8%	2%	-0.4%	-3
O=C(Cc1c[nH]c2ccccc12)OCCOC(=O)Cc1c[nH]c2ccccc12	16%	-3%	-1.2%	·
Cc1ccc(N(C(=O)Cc2cccs2)C(C(=O)NC2CCCC2)c2ccncc2)cc1 (stereo not given)	-1%	0%	1.3%	6
CC(=O)N1c2ccc(S(=O)(=O)N3CCCCC3)cc2CC1C(=O)Nc1ccc(C)cc1 (stereo not given)	0%	7%	-0.5%	·
Cc1ccc(C)c(S(=O)(=O)NC(Cc2c[nH]c3ccccc23)C(=O)O)c1 (stereo not given)	0%	-1%	-1.4%	5
Cn1c2ccccc2c2cc(C(=O)N3CCN(CCO)CC3)sc21	-29%	1%	0.3%	2
COc1ccc(Cc2nnc(SCC(=O)c3cccc([N+](=O)[O-])c3)n2C)cc1	-1%	15%	-5.0%	-4
O=C(Nc1cc(S(=O)(=O)N2CCOCC2)ccc1N1CCOCC1)c1ccc(S(=O)(=O)N2CCCCC2)cc1	-6%	2%	2.3%	0
COc1ccc(OC)c(C2C3=C(CCCC3=O)Nc3nnnn32)c1 (stereo not given)	-4%	-16%	-0.6%	3
O=C(c1cc(-c2ccc3c(c2)OCO3)on1)N1CCN(c2ccc(F)cc2)CC1	0%	-21%	-4.4%	1
Clc1ccccc1CSc1snnc1-c1ccccc1	-46%	?	-5.8%	-3
COc1ccccc1C(=O)Nc1ccc2c(c1)nc(CCNC(=O)c1ccco1)n2C	12%	5%	0.5%	·
CC(=O)c1c(C)[nH]c(C(=O)OCC(=O)Nc2cccnc2Cl)c1C	·	-12%	1.3%	·
CCCCOc1ccc(CSCCN=C(N)N)cc1	5%	14%	5.3%	-5
CCCOc1ccc(C(=O)Nc2ccc(Cl)cn2)cc1	0%	4%	-1.3%	5
COc1ccc(NC(=O)CN2CCN(c3ccccc3)CC2)cc1	3%	10%	-4.0%	2
CCCOc1ccc(NC2=CC(=O)CC(C)(C)C2)cc1	-21%	3%	0.0%	1
CCC(C)C(=O)Nc1cc(OC)c(OC)cc1C(=O)O (stereo not given)	1%	1%	-0.3%	0
Cc1ccnc(NC(=O)c2cccc(NC(=O)CC3SC(N4CCCCC4)=NC3=O)c2)c1 (stereo not given)	·	0%	4.6%	·
COc1ccc(S(=O)(=O)Cc2ccc(C(=O)O)o2)cc1	-2%	-5%	-1.3%	·
Cc1nc2ccn(Cc3ccccc3)c(=O)c2cc1C(=O)N1CCN(c2ccc(F)cc2)CC1	9%&11%	2%	?	·
COc1ccc(Cl)cc1NC(=O)C(C)OC(=O)Cn1cc(C(F)(F)F)ccc1=O (stereo not given)	·	-2%	2.7%	·
CCc1nnc(NS(=O)(=O)c2ccc(N3C(=O)c4ccccc4C3=O)cc2)s1	0%	3%	4.6%	3
C=CCN(CC=C)C(=O)C(=O)c1cc(C)n(-c2ccc([N+](=O)[O-])cc2)c1C	4%	1%	-3.6%	-2
CC(C)N(C(=O)CSc1nnc(CN2CCCCCC2=O)n1-c1ccccn1)C(C)C	-3%	3%	-0.7%	-3
Cc1ccc(N2CC(C(=O)OCC(=O)c3c(N)n(CC(C)C)c(=O)n(C)c3=O)CC2=O)cc1 (stereo not given)	·	-2%	2.7%	·

The list is partial, so the mix of outcomes need not match the whole.
